From PubChem
Tg IFNy HTS – T. gondii growth inhibition with IFN-gamma, primary screen, cell-based. Toxoplasma gondii growth in IFN-gamma-treated host cells; hits give low values; reference of the scale not given here. activity change, negative = inhibition, %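 (about 20 µM by stock and volumes)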. 69,000 compounds, 3.8% hits;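 active = below -70%; inconclusive = fit judged invalid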;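 note: host cells are HeLa cells infected with Toxoplasma gondii; parasite growth read as luciferase light; one replicate is shown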
Starred values were filed as active, the others as inactive; ? = inconclusive; & = joins results of further samples. This is a subset; count on the stated rates, not on these rows.

Start of the listing, in advance (17 entries):
SMILES | Tg IFNy HTS
CN1CCN([C@@H]2CCN(c3nccc(N)n3)C[C@H]2O)CC1 | -53
O=C1NC(CCCc2ccccc2)(C2CCNCC2)C(=O)N1Cc1cccnc1 (stereo unspecified) | 3
O=C(Nc1ccccc1Cl)c1c(O)c2ccccc2n(-c2ccccc2)c1=O | 35
O=C(O)C12CC3CC(C1)CC(C(F)(F)C(F)C(F)(F)F)(C3)C2 (stereo unspecified) | -27
COc1ccccc1OCc1cc(C(=O)N[C@@H]2c3ccccc3C[C@@H]2O)n[nH]1 | -4
O=S(=O)(c1ccc2ccccc2c1)N1CCN(Cc2cccs2)CC1 | ?
CCc1cn[nH]c1C1CCCN(C(=O)c2cc(CC(C)C)nn2CC)C1 (stereo unspecified) | -65
Cc1c(C2CC(=O)Nc3[nH]ncc32)[nH]c2ccc(F)cc12 (stereo unspecified) | -5
Cc1ccsc1[C@@H]1CCN(C(=O)CCC(=O)c2ccccc2)C[C@H]1O | 62
O=S(=O)(N1CCOCC1)N1CCN(Cc2cnn(C3CCCCC3)c2)CC1 | -1
CC(C)CN1CC2(CCN(C(=O)Cc3cccs3)CC2)C2(CCN(C)C2=O)C1 (stereo unspecified) | 24
CC(=O)N1CC2(CCN(C(=O)[C@@H]3CCCN3)CC2)CC1C(=O)O (stereo partly specified) | 1
O=C(NCCNc1nccc(C2CCCC2)n1)c1ccncc1 | -34
O=C(C1CC2(CCNCC2)CN1)N(CCc1ccccc1)Cc1ccccc1 (stereo unspecified) | -40
Cc1c(-c2ccccc2)n[nH]c1C(=O)N(C)Cc1cccc2ncccc12 | -54
COc1ccc2c3c([nH]c2c1)[C@@H](CO)N(S(=O)(=O)c1ccccc1)CC31CCN(C)CC1 | 10
O=C(c1ccoc1)N1CCC2(CCC(=O)N2Cc2cccnc2)CC1 | 0

The listing, previewed entries included:
SMILES | Tg IFNy HTS
CN1CCN([C@@H]2CCN(c3nccc(N)n3)C[C@H]2O)CC1 | -53
O=C1NC(CCCc2ccccc2)(C2CCNCC2)C(=O)N1Cc1cccnc1 (stereo unspecified) | 3
O=C(Nc1ccccc1Cl)c1c(O)c2ccccc2n(-c2ccccc2)c1=O | 35
O=C(O)C12CC3CC(C1)CC(C(F)(F)C(F)C(F)(F)F)(C3)C2 (stereo unspecified) | -27
COc1ccccc1OCc1cc(C(=O)N[C@@H]2c3ccccc3C[C@@H]2O)n[nH]1 | -4
O=S(=O)(c1ccc2ccccc2c1)N1CCN(Cc2cccs2)CC1 | ?
CCc1cn[nH]c1C1CCCN(C(=O)c2cc(CC(C)C)nn2CC)C1 (stereo unspecified) | -65
Cc1c(C2CC(=O)Nc3[nH]ncc32)[nH]c2ccc(F)cc12 (stereo unspecified) | -5
Cc1ccsc1[C@@H]1CCN(C(=O)CCC(=O)c2ccccc2)C[C@H]1O | 62
O=S(=O)(N1CCOCC1)N1CCN(Cc2cnn(C3CCCCC3)c2)CC1 | -1
CC(C)CN1CC2(CCN(C(=O)Cc3cccs3)CC2)C2(CCN(C)C2=O)C1 (stereo unspecified) | 24
CC(=O)N1CC2(CCN(C(=O)[C@@H]3CCCN3)CC2)CC1C(=O)O (stereo partly specified) | 1
O=C(NCCNc1nccc(C2CCCC2)n1)c1ccncc1 | -34
O=C(C1CC2(CCNCC2)CN1)N(CCc1ccccc1)Cc1ccccc1 (stereo unspecified) | -40
Cc1c(-c2ccccc2)n[nH]c1C(=O)N(C)Cc1cccc2ncccc12 | -54
COc1ccc2c3c([nH]c2c1)[C@@H](CO)N(S(=O)(=O)c1ccccc1)CC31CCN(C)CC1 | 10
O=C(c1ccoc1)N1CCC2(CCC(=O)N2Cc2cccnc2)CC1 | 0
COc1cc(CNC(=O)Cn2ncc3c(N4CCCCC4)ncnc32)cc(OC)c1 | 90
CC(C)(C(=O)O)c1ccc(C(=O)CCCN2CCC(OC(c3ccccc3)c3ccccc3)CC2)cc1 | 13
O=C(c1cncc(N2Cc3cnn(CCO)c3C2)n1)N1CCCCC1 | -1
O=C(Nc1ccc(F)c(Cl)c1)N1CCCCC1CCN1CCOCC1 (stereo unspecified) | -2
Oc1cc(-c2cccc(Cl)c2)cc2c1OCCN(CCCc1cccnc1)C2 | -22
Cn1nc(CC(=O)NCCN2C(=O)CSC2=O)c2ccccc2c1=O | 22
O=C(c1ccco1)N1CCN(CC(=O)N2c3ccccc3Sc3ccccc32)CC1 | 115
CC(=O)C1CNc2ccc(Cl)cc2C1(O)c1ccccc1 (stereo unspecified) | -19
CC1=C(C(=O)NCc2cccc(Cl)c2)C2(CCN(S(C)(=O)=O)CC2)OC1=O | -20
O=C(Nc1ccc(CCN2CCCCCC2)cc1)c1cccc(Cn2ccnc2)c1 | 12
CN(C)S(=O)(=O)N1C[C@@H]2CN(CC3CCCC3)CCO[C@H]2C1 | -7
COc1ccccc1/C=C/CN1CCNC(C(=O)N2CCCC2)C1 (stereo unspecified) | 2
CCC(=O)Nc1cccc(OCC(=O)N(C)Cc2ncc(C)[nH]2)c1 | -65
CCN1CCOCC2(CCCN(C(=O)Cc3cccs3)C2)C1 (stereo unspecified) | 10
CCN1[C@@H]2c3ccc(-c4ccc(C(=O)N(C)C)cc4)c(=O)n3C[C@@H]2[C@@H](CO)[C@@H]1C(=O)NCCOC | 5
COc1ccc2c(c1)NC1(CCN(S(=O)(=O)c3ccc(F)c(F)c3)CC1)c1cccn1-2 | -3
CCOc1ccccc1-c1nc(Cn2nnc(C(=O)Nc3ccc(OC)c(Cl)c3)c2C)c(C)o1 | 110
Cc1noc(C)c1CC(=O)N1CCCC(c2ccc(-c3ccc(N)nc3)cn2)C1 (stereo unspecified) | 23
CO[C@H]1CN(C)C(=O)c2cc(NC(=O)c3cnccn3)ccc2OC[C@H](C)NC[C@H]1C | 53
Cc1ccc2c(CC(=O)O)coc2c1 | 32
COc1ccc(N2C(=O)C3CCCN3C2=O)cc1 (stereo unspecified) | -9
CC(=O)N1CCc2cc(NC(=S)NCc3cccs3)ccc21 | 14
CCn1c(CC2CCN(Cc3ccc(F)c(F)c3F)CC2)nn(C)c1=O | -5
Cc1cccc(CNC(=O)C2(Oc3cccnc3C)CCNCC2)c1C | 4
Cc1ccc(N2CCN(C(=O)c3cccc4[nH]cc(CN5CCCC5)c34)CC2)cc1 | -63
O=C1NCCOCc2cn(nn2)CC[C@@H]1Cc1ccc(F)cc1 | -11
Cc1nc(-c2ccc(F)cc2)nc2c1CCN(c1cnccn1)CC2 | 3
CSc1sc(C2=NNC(O)(C(F)(F)F)C2)c2c1C(=O)CCC2(C)C (stereo unspecified) | -96*
CC(C(=O)NCc1cccnc1-n1ccnc1)n1cncn1 (stereo unspecified) | 5
CCOc1ccc(NC(=O)NCC(c2cccnc2)c2c[nH]c3ccccc23)cc1 (stereo unspecified) | 114
Cc1ccccc1CNc1nc(CCn2ncc3c2CCCC3)cc(=O)[nH]1 | 7
CCS(=O)(=O)N1CSC[C@@H]1C(=O)NCCc1csc(-c2ccccc2)n1 | 14
C[C@@H]1CN([C@@H](C)CO)C(=O)CCCn2nncc2CO[C@H]1CN(C)Cc1ccc2c(c1)OCCN2C | 61
CCC(=O)N1[C@@H]2CN(S(=O)(=O)c3ccc(F)cc3)c3ccccc3[C@@H]2[C@@H]1CO | 5
Cn1cc(C[C@@H]2[C@H](NS(C)(=O)=O)CCN2C2CCOCC2)cn1 | -6
COc1ccccc1-c1nc(Cn2nnc(-c3nc(-c4ccccc4C)no3)c2C)c(C)o1 | -9
COc1ccc(NC(=O)C2=NOC3(CCCN(S(=O)(=O)c4ccc(C)cc4)C3)C2)cc1 (stereo unspecified) | -1
Cc1[nH]ncc1CNC(=O)c1ccc(-c2nc(CN3CCN(c4ccccc4)CC3)c(C)o2)cc1 | 27
Cc1nc(CCNC(=O)[C@H]2CCCN2S(=O)(=O)c2ccc(F)cc2)cs1 | -3
Cc1occc1C(=O)N1CCc2ncnc(N3CCOCC3)c2CC1 | 1
Cc1cc(C)nc(SCc2cc(-c3nn(C)c(=O)c4ccccc34)ccc2C)n1 | 61
Cc1cccc(C(=O)Nc2ccc(-c3nc(Cn4nc(C)c(C)c4C)c(C)o3)cc2)c1 | -91*
CC(C)Oc1ccc(NC(=O)c2nc3c(n2C(C)C)CCN(C(=O)C2CC2)C3)cc1 | -26

Carrying on.
SMILES | Tg IFNy HTS
Cc1ccsc1CN(C)c1ccc(-c2nccn2C)nn1 | 220
O=C(NCC1CC1)c1ccn(-c2ccc3ccc(-c4cccc(F)c4)cn23)n1 | 9
CC(NC1CCC2(CCNCC2)CC1)c1cn2ccsc2n1 (stereo unspecified) | 1
O=C(N[C@@H]1C[C@H](Cc2ccccc2)O[C@H](c2cccnc2)C1)c1ccccc1 | -11
CC(=O)N1CCOC(CNC(=O)COc2cccnc2)C1 (stereo unspecified) | 59
COc1ccc(CNS(=O)(=O)c2cc3c4c(c2)CCN4C(=O)CC3)cc1 | 2
O=C(Cn1cnc2ccccc21)NCCc1nc(-c2cccnc2)n[nH]1 | 67
CCc1ccc(S(=O)(=O)NCCc2csc(-c3cccc(F)c3)n2)s1 | -42
C[C@@H]1CN([C@H](C)CO)C(=O)c2cc(NS(=O)(=O)c3ccccc3)ccc2O[C@@H](C)CCCCO[C@H]1CN(C)C(=O)C1CCCCC1 | -116*
O=C(Oc1ccc2[nH]cc(CCN3C(=O)c4ccccc4C3=O)c2c1)c1ccco1 | 6
CCn1c(C2CCN(Cc3cn(C)nc3-c3ccccc3)CC2)n[nH]c1=O | -1
CS(=O)(=O)N1CCN2CC(C(=O)O)CN(Cc3ccco3)CC2C1 (stereo unspecified) | -1
CC(C)(O)C#Cc1cccc(C(=O)NCC[C@@H]2C[C@@H]3C=C[C@H]2C3)c1 | -1
C=CCN(Cc1ccccc1C)C(=O)CCc1ccccc1O | -19
Cc1nc(NS(C)(=O)=O)sc1C(=O)N1Cc2ccccc2OCC1CN(C)C (stereo unspecified) | 13
CCOC(=O)CSC1=Nc2ccccc2C2=NC(CC(=O)NCc3ccccc3OC)C(=O)N12 (stereo unspecified) | 12
O=C1CCc2cc(S(=O)(=O)NC3CCCCCC3)cc3c2N1CC3 | 12
CO[C@H](CN(C)S(=O)(=O)c1ccc(F)cc1)[C@@H](C)CN(Cc1ccccc1Cl)[C@H](C)CO | 43
C[C@H](CO)N1C[C@H](C)[C@@H](CN(C)C(=O)[C@@H](Cc2ccccc2)N(C)C)OCc2ccccc2-c2c(n(C)c3ccccc23)C1=O | -12
O=C(c1ccco1)N1CC[C@@H]2C[C@H](c3nc(C4CC4)cs3)O[C@H]2C1 | 18
CC1(CN2CCC(n3c(=O)[nH]c4ccccc43)CC2)OCc2ccccc2-n2cccc21 (stereo unspecified) | -39&9
C[C@@H]1CN([C@H](C)CO)S(=O)(=O)c2ccc(C#CC3(O)CCCC3)cc2O[C@@H]1CN(C)C(=O)Nc1cccc(F)c1 | -99*
CCCCC(NC(=O)C1CCC(O)CC1)c1cccnc1 (stereo unspecified) | 4
CC1CCN(c2nc3ccccc3n3cnnc23)CC1 | 3
Cn1c(CN2CCC(c3ccn[nH]3)C2)nc2ccccc21 (stereo unspecified) | 4
CO[C@@H]1CN(C)C(=O)c2cc(NS(C)(=O)=O)ccc2OC[C@H](C)N(C(=O)C2CCOCC2)C[C@@H]1C | 21
CCn1ncc(C(=O)NCc2nccn2Cc2ccccc2)c1C | 6
Cc1cc(C)n(-c2c(Cl)cc(C(F)(F)F)cc2Cl)n1 | 35
CCCC(=O)Nc1ccc2c(c1)OC[C@@H](C)N(CC1CCOCC1)C[C@H](C)[C@H](OC)CN(C)C2=O | -83*
COc1cccc(-c2ccc3c(c2)O[C@@H](CN(C)Cc2cccnc2)[C@H](C)CN([C@@H](C)CO)S3(=O)=O)c1 | -95*
O=C(O)Cc1cc2ccccc2nc1C(=O)O | 5
CNC(=O)C[C@H]1CC[C@@H]2[C@H](COc3ccc(NC(=O)c4ccccc4F)cc3C(=O)N2C)O1 | 3
CCOC(=O)N1CCN(C(=O)c2ccc(N3CCC(NCCc4cccs4)CC3)cc2)CC1 | 0
Cc1ccc(NC(=O)N2CCC(c3nc(C(=O)N(C)C)c(C)o3)CC2)cc1 | 30
CCC(=O)Nc1ccc(OCC(=O)N2CCCC3(CCNCC3)CC2)cc1 | -5
CN(NS(=O)(=O)c1ccc(C(F)(F)F)cc1)c1cnn(C)c(=O)c1Cl | 104
O=C(CN1CCOCC1)N1CCCCN2[C@H](CO)[C@@H](c3ccc(Br)cc3)[C@H]2C1 | -26
O=S1(=O)c2cccc3cccc(c23)N1CCCN1CCN(c2ccc(F)cc2)CC1 | 7&21
NC(=O)C1(N2CCCCC2)CCN(c2ccc(NC(=O)c3ccc(Cl)cc3)cc2C(=O)O)CC1 | 2
O=C(CC(F)(F)F)N1C[C@H]2[C@@H](c3ccccc31)[C@H](CO)N2Cc1cccnc1 | -2
CNCC(O)Cn1c(C)c(C)c2ccccc21 (stereo unspecified) | -3
Cc1ccc(C(=O)Sc2nc(-c3ccccc3)[nH]c2S(=O)(=O)c2ccc(C)cc2)cc1 | 12
Cc1cccc(Cn2c(CN3CCC(C(=O)NCc4cccnc4)CC3)cc3ccccc32)c1 | 0
Cc1cccc(N2CCn3c(Cn4cncn4)cnc3C2C)n1 (stereo unspecified) | 1
CC(=O)c1ccc(N2CCc3nnc(CCc4ccccc4)n3CC2)nc1 | 2
CCN1C(=O)C(C(=O)NC(C)c2ccccc2)C2CC1(C)Oc1ccccc12 (stereo unspecified) | 6
CC(C)Oc1ccc(C(=O)N2CCN(S(=O)(=O)c3cc4c5c(c3)CCN5C(=O)CC4)CC2)cc1 | -1
O=C(CCC1N=C2c3ccccc3N=C(SCc3cc(=O)n4cc(Cl)ccc4n3)N2C1=O)NCc1ccc2c(c1)OCO2 (stereo unspecified) | 11
COC(=O)C1=C(C)NC(C)=C(C(=O)OCCCN2CCC(c3ccccc3)(c3ccccc3)CC2)[C@@H]1c1cccc([N+](=O)[O-])c1 | -87*
Cn1cccc1CNCCN1CCOCC1 | -13
CCC(=O)N1[C@H](C(=O)NCc2ccc(F)cc2)[C@@H](CO)[C@@H]2Cn3c(ccc(C4=CCCCC4)c3=O)[C@@H]21 | -7
O=C(NCC[C@H]1CC[C@H](NS(=O)(=O)Cc2ccccc2)[C@@H](CO)O1)C1CCCCC1 | 19
